# Assay outcomes from PubChem BioAssay.
# PrP 5UTR inh: inhibition of PrP 5' UTR reporter expression | 340,000 tested, 0.35% active | cell-based PrP 5' UTR mRNA reporter, plate reader | inhibition, % (no concentration beside the values);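 active = every replicate at 50% or more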;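 note: 0 = median of the neutral control wells; tested in H4 reporter cells; numbers are from one replicate; inactives centre near -14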
# BJeLR viability: kills HRASV12-expressing BJeLR cells; 300,000 tested, 0.17% active; inhibition, % (no concentration beside the values); BJeLR (HRASV12) viability, CellTiter-Glo ATP luminescence, 48 h; reference of the scale not given here;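 active = replicate mean above 50%; inconclusive = above 50% but judged a plate artefact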;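 note: 50 nL library stock added to about 25 µL; numbers are from one replicate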
# ugtP null kill: growth inhibition of S. aureus ugtP deletion strain | AID 1259309 | S. aureus RN4220 ugtP deletion, OD600 growth, 16 h; some inactives read as strong as hits | 330,000 tested, 0.54% active | growth inhibition, % (test concentration not listed);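 active = z-score under -3 and OD600 up to 0.15 on both plates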;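 note: plate controls were untreated wells for no effect and antibiotic for full effect; wells of about 80 µL received 100 nL stock; the first replicate is given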
# Bead autofluor: compound fluorescence in toxin protease inhibitor counterscreen; fluorescence intensity (test concentration not listed); compound autofluorescence counterscreen, microsphere flow cytometry; hits give high values; AID 624483; 360,000 tested, 3.1% active;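 active = at least 3 SD above the mean of all compounds, about 16000 in these data; inconclusive = too few beads counted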;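 note: 100 nL of 1 mM stock went into each well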
# Mtb hypoxia inh: inhibitors of hypoxia-regulated fluorescent reporter in Mycobacterium tuberculosis; M. tuberculosis hypoxia-regulated fluorescent reporter, fluorescence; fluorescence inhibition, % (test concentration not listed); 300,000 tested, 0.1% active;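 active = 35 to 45% if threefold the growth effect, above 45% if 1.5-fold the growth effect; inactive = the rest, general growth blockers included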;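 note: wells of about 50 µL received 100 nL stock; 0% = vehicle wells and 100% = reference inhibitor wells; whole bacteria with a GFP reporter of the hypoxia response; strong numbers were not always called active; many hits fall short of the cut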
# RN4220 kill: kills Staphylococcus aureus RN4220. inhibition, % (test concentration not listed). 330,000 tested, 0.33% active. S. aureus RN4220 growth, OD600, 16 h. AID 1259311;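 active = z-score of -3 or lower and OD600 up to 0.18 on both plates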;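 note: plate controls were untreated cells for no effect and reference antibiotic for full effect; stock transfer was 100 nL into about 80 µL; one replicate is shown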
# Mtb hypoxia inh growth: second read-out of Mtb hypoxia inh, no call of its own (marks repeat the call); growth inhibition, %; measured here: M. tuberculosis growth (absorbance);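 0% = vehicle and 100% = reference antibiotic; read after six days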
# * = called active by the depositor; u = inconclusive; x = not tested or not shown.
SMILES,PrP 5UTR inh,BJeLR viability,ugtP null kill,Bead autofluor,Mtb hypoxia inh,Mtb hypoxia inh growth,RN4220 kill
COc1cccc2sc3ccc(C#Cc4ccc(N)cc4)cc3c(=O)c12,-5,-1,5,4039,1,3,-17
CC(=O)Oc1ccccc1N(C(C)=O)S(=O)(=O)c1cccc([N+](=O)[O-])c1,-19,1,3,5112,4,-5,6.0
Cc1c(C(=O)OCCOC(C)C)[nH]c2c1C(=O)CC(C)(C)C2,-53,6,0,5494,x,x,-0.6
CC(C)(C)OC(=O)NN=Cc1ccc(C(=O)O)cc1,x,x,6,x,12,7,5.0
COc1ccccc1NC(=O)CN1CCN(c2ccc(Cl)cc2)CC1,-18,-5,-6,4778,x,x,3.1
COC(=O)c1cc(C(=O)N2CCN(c3cccc(C)c3C)CC2)cc([N+](=O)[O-])c1,-5,6,-1,2202,-2,1,1.0
CN(C)CCCN(C(=O)CCOc1ccccc1)c1nc2ccc(F)cc2s1,-3,x,-3,4124,12,4,-2.0
O=C(CCC(=O)N1CCCc2ccccc21)N1CCN(S(=O)(=O)c2ccccc2)CC1,-25,-3,-4,2387,x,x,1.8
Cc1ccc(CN2CC(C(=O)N3CC=C(c4ccccc4)CC3)CC2=O)cc1 (stereo not given),-16,-3,-4,5753,5,6,2.9
N/C(=N\OC(=O)Cc1ccccc1[N+](=O)[O-])c1ccc(Br)cc1,-30,-2,x,4384,x,x,x
CN1C(=CC=NNC(=O)c2ccccc2Br)C(C)(C)c2ccccc21,x,x,88*,x,-4,6,-2.3
C=CCN(C(=O)c1csnn1)C(C(=O)NC1CCCC1)c1ccc(Cl)cc1 (stereo not given),-18,-8,1,3603,-6,-2,1.5
CCC(Cc1ccccc1)NS(=O)(=O)c1ccc2c(c1)NC(=O)CS2 (stereo not given),-6,-3,-8,7158,-1,-1,7.7
O=C(Nc1cccc(-n2cccn2)c1)C1CCCN(Cc2ccccc2F)C1 (stereo not given),-22,-6,5,6022,-5,9,0.3
N#CCCCCn1ccc(NC(=O)c2ccc(Cl)cc2O)n1,-7,2,5,u,-12,1,4.6
COc1ccc(NC(=O)N2CCc3cc(OC)c(OC)cc3C2)cc1,-21,1,6,2973,13,6,9.5
CCOC(=O)c1ccc(N/C(=N/S(=O)(=O)c2ccccc2)c2ccccc2)cc1,-1,-2,x,10204,x,x,x
COc1cccc(C=NNC(=O)CNC(=O)/C=C\c2ccccc2)c1O,x,x,0,x,8,13,-0.1
CCOc1ccc2nc(SCC(=O)Nc3cc4c(cc3C(C)=O)OCO4)[nH]c2c1,-8,-12,4,3206,8,7,5.7
O=C(OCC(=O)N1CCCc2ccccc21)c1ccc(C(F)(F)F)cc1,-16,6,11,4715,-1,-3,4.7
O=C(CCC1CCCC1)NCc1ccccn1,-32,1,1,3549,x,x,5.0
Cn1c(=O)c2c(ncn2CC(=O)N2CCN(c3ccccc3F)CC2)n(C)c1=O,-25,-4,7,5684,20,8,3.7
CCOC(=O)N1C2C=CC(C2)N1C(=O)OCC,-5,x,-2,4446,6,-12,0.6
COc1ccc(C(=O)c2c(C(F)(F)F)oc3c2C(=O)c2ccccc2C3=O)cc1OC,-1,2,80,2204,x,x,49
Cc1ccc2nc3c(c(Nc4ccccc4)c2c1)CCC3,-39,2,0,4097,2,-2,-3.4

# Quoted at random: 3 entries already listed
SMILES,PrP 5UTR inh,BJeLR viability,ugtP null kill,Bead autofluor,Mtb hypoxia inh,Mtb hypoxia inh growth,RN4220 kill
COc1ccc(C(=O)c2c(C(F)(F)F)oc3c2C(=O)c2ccccc2C3=O)cc1OC,-1,2,80,2204,x,x,49
COc1cccc(C=NNC(=O)CNC(=O)/C=C\c2ccccc2)c1O,x,x,0,x,8,13,-0.1
COc1cccc2sc3ccc(C#Cc4ccc(N)cc4)cc3c(=O)c12,-5,-1,5,4039,1,3,-17

# Other results follow.
SMILES,PrP 5UTR inh,BJeLR viability,ugtP null kill,Bead autofluor,Mtb hypoxia inh,Mtb hypoxia inh growth,RN4220 kill
COc1ccc(COCC(O)CN2CCCCC2)cc1OC (stereo not given),5,-16,8,4116,3,-6,3.1
CN1C(=O)C(C)(C)c2cc(S(=O)(=O)N3CCCC3C(=O)NCc3ccc(F)cc3)ccc21 (stereo not given),-26,3,-6,5762,2,-9,-3.6
Cc1cccc(NC(=O)CSc2cn[nH]n2)c1,-22,6,9,4003,11,14,4.6
COC(=O)C1=C(c2cc3ccccc3o2)CC2CCC1N2C(=O)N1CCC(C)CC1 (stereo not given),x,x,3,x,9,9,1.2
O=Cc1cc(Br)c(OC(=O)N2CCOCC2)c(Br)c1,-8,0,13,3194,0,10,0.9
O=C(Oc1ccc(Br)cc1)c1cccc(S(=O)(=O)N2CCOCC2)c1,-3,-5,6,3744,2,14,0.7
O=C1c2ccccc2C(=O)C1c1ccccc1F,-24,-1,12,2898,19,7,4.8
C/C(CCC(C)C)=N\NS(=O)(=O)c1ccc(C)c([N+](=O)[O-])c1,-5,2,x,4517,x,x,x
COc1cccc(-n2nnc3c(=O)n(CC=Cc4ccccc4)cnc32)c1,x,x,6,x,0,1,5.8
c1ccc(N2N=C(c3cccs3)CC2c2ccco2)cc1 (stereo not given),-19,-6,16,2085,x,x,3.8
COc1ccc(OC2C(=O)N(c3ccc(C)c(C)c3)C2c2ccc(OC)c(OC)c2)cc1 (stereo not given),-13,0,1,2766,1,6,11
O=C(c1cc(F)c(F)cc1Cl)N1CCOCC1,-13,1,3,4895,x,x,3.5
Cc1nc2ccccc2c2oc(C(=O)N3CCC(C)CC3)cc12,-15,6,-8,6093,7,10,4.9
O=C(Cn1c(=O)oc2ccc(Cl)cc21)Nc1ccon1,-5,8,-1,5800,5,3,0.5
CNC(=O)NC(=O)CSc1cccc(C(F)(F)F)c1,-22,-3,6,11672,16,7,2.1
Cc1ccc(C2=NN(C(=O)CN3CCN(C4CCS(=O)(=O)C4)CC3)C(c3ccco3)C2)cc1 (stereo not given),-17,x,-3,3704,-9,7,-1.1
CC(C)COC(=O)c1ccccc1OC(=O)c1ccncc1,11,-3,2,2667,15,-3,11
Cc1nc(NC(=O)C2CC2)sc1C,-26,-12,10,7709,15,12,1.1
COc1ccc(Cc2nnnn2CC(=O)O)cc1,-34,2,-7,3392,17,5,-15
CSc1ccc(CN(C)C(C)C(=O)NCc2ccccc2)cc1 (stereo not given),-9,2,11,4208,1,7,1.4
C(=NNc1nc(Nc2ccccc2)nc(N2CCOCC2)n1)c1c[nH]c2ccccc12,x,x,-17,x,5,0,6.2
CCc1cc(CC)c(C=NNC(N)=O)c(CC)c1,x,x,-12,x,-2,9,-1.2
COc1ccc(-c2n[nH]c(=S)n2-c2ccccc2C)cc1,0,1,6,4034,10,9,1.1
Cc1ccc(C(=O)CCC(=O)N2CCN(c3ccc(F)cc3)CC2)cc1,-8,-2,-14,5755,x,x,0.9
O=C(CCc1ccccc1)NCc1ccncc1,-15,10,11,3507,3,5,3.4

# Next part; the last 3 above are carried over.
SMILES,PrP 5UTR inh,BJeLR viability,ugtP null kill,Bead autofluor,Mtb hypoxia inh,Mtb hypoxia inh growth,RN4220 kill
COc1ccc(-c2n[nH]c(=S)n2-c2ccccc2C)cc1,0,1,6,4034,10,9,1.1
Cc1ccc(C(=O)CCC(=O)N2CCN(c3ccc(F)cc3)CC2)cc1,-8,-2,-14,5755,x,x,0.9
O=C(CCc1ccccc1)NCc1ccncc1,-15,10,11,3507,3,5,3.4
O=C(NCc1cccc(CNC(=O)C(=O)NCC2CCCO2)c1)C(=O)NCC1CCCO1 (stereo not given),-16,-3,x,4943,x,x,x
NC(=O)Nc1cc(Cl)ccc1Cl,-10,6,11,6182,16,-2,0.5
CCN(CC)S(=O)(=O)c1cccc(-c2csc(C)n2)c1,0,4,10,4620,16,4,6.0
O=C(O)c1ccc(N2C(=O)c3ccc(C(=O)c4cccc([N+](=O)[O-])c4)cc3C2=O)cc1,7,-11,-2,2014,-1,7,3.9
O=C(Cn1nnc(-c2ccc3c(c2)OCO3)n1)NCc1ccco1,-31,6,6,4296,x,x,2.8
O=C(N/N=C/c1ccc(Cl)c([N+](=O)[O-])c1)c1cnccn1,-16,-9,x,2429,x,x,x
COc1ccc2oc(C(=O)OCC(=O)NCCc3ccc(S(N)(=O)=O)cc3)c(C)c2c1,3,x,10,6385,-6,-7,3.1
CC(C)CN(C(=O)COC(=O)c1ccc2c(c1)OCCO2)c1c(N)n(Cc2ccccc2)c(=O)[nH]c1=O,-14,9,1,4240,5,-6,0.9
CCC(=NNC(=O)c1nnn(-c2nonc2N)c1CN(C)c1ccccc1)c1ccccc1,x,x,-9,x,-8,5,-1.0
CCOC(=O)c1c(C)nc2c(c1-c1ccc(Cl)cc1)C(=O)CC(C)(C)C2,-9,11,-8,2635,7,18,3.8
S=C(NCCc1ccccc1)N1CCc2ccccc2C1,-47,-1,1,2188,7,5,1.7
Cc1cccc(CN2C(=O)NC(c3ccccc3)(c3ccccc3)C2=O)c1,-19,-2,x,3737,x,x,x
Cc1nnc(SCC(=O)NCc2ccco2)n1Cc1ccccc1,-27,-8,-2,2848,6,16,-2.5
COc1ccc(-n2c(COc3cccc(C)c3)n[nH]c2=S)cc1,-17,-4,4,3889,11,8,4.7
Cc1ccc(C=NNS(=O)(=O)c2ccc([N+](=O)[O-])cc2)o1,x,x,6,x,13,4,5.2
C/C=C/c1ccc(OCCOCCOc2cccc3cccnc23)c(OC)c1,-18,-1,4,3574,3,3,8.5
COc1ccc(CNC(=O)CN(C)S(=O)(=O)c2ccc3c(c2)n(C)c(=O)c(=O)n3C)cc1,4,4,2,5205,-3,5,2.6
Cc1ccc(NC(=O)[C@@H]2CCCN2C(=O)c2cccs2)cc1S(=O)(=O)N1CCCCC1,-12,x,0,3641,-2,7,-2.6
CCCCCCCCCC(=O)N1c2ccccc2NC(=O)C1CC(=O)Nc1ccc(C(=O)O)cc1 (stereo not given),-14,-4,4,4191,-1,7,1.6
Cc1ccc(-c2cc(C(F)(F)F)n3ncc(C(=O)N4CCN(C)CC4)c3n2)cc1,-12,x,-2,2562,x,x,-5.5
O=C1NC(c2ccco2)Nc2ccccc21 (stereo not given),-2,-7,-1,4913,x,x,0.9
CC(N)Cc1c[nH]c2ccc(OCc3cccs3)cc12 (stereo not given),-14,-1,8,6275,-5,6,1.7
CC(C)OC(=O)Nc1ccc(N=C(N)N[N+](=O)[O-])cc1,-3,-1,12,2186,6,-1,8.1
COCCN(CC(=O)Nc1cccc(C)c1C)C(=O)Cn1cnc2ccccc2c1=O,-21,x,-1,4626,7,-8,3.7
COc1ccccc1-c1csc(NC(=O)c2ccc(N3C(=O)CCC3=O)cc2)n1,-15,0,-15,2085,-3,-2,13

# Further entries follow.
SMILES,PrP 5UTR inh,BJeLR viability,ugtP null kill,Bead autofluor,Mtb hypoxia inh,Mtb hypoxia inh growth,RN4220 kill
CC1NC(=O)N(C)[C@@H]2NC(=O)N(C)C(c3ccc([N+](=O)[O-])cc3)[C@@H]12 (stereo not given in full),-21,6,x,5566,x,x,x
O=C(Nc1ccccc1C(=O)N1CCOCC1)c1ccc(Cl)cc1,-6,11,11,2026,8,9,0.6
CCOC(=O)c1c(NC(=O)CSc2nc(C)cc(C)c2C#N)sc(C(C)=O)c1C,-17,-26,-3,4163,-75,4,4.6
Cc1noc(NS(=O)(=O)c2ccc(N/C=C/C(=O)c3cccnc3)cc2)c1C,-38,-10,9,7331,13,12,5.1
CCOC(=O)CC[C@H](NC(=O)Cn1cnc2c(SC)nc(N)nc21)C(=O)OCC,-10,x,-3,3600,-3,-1,-0.1
Cc1nc(Nc2ccc(Br)cc2Br)c([N+](=O)[O-])c(=O)[nH]1,-24,3,2,4093,6,-1,10
COc1ccc(-c2cc(C(F)(F)F)nc(NCc3cccnc3)n2)cc1,-3,-1,-3,7993,-2,0,2.6
COc1ccccc1N1CCN(/N=C/C=C\c2ccccc2[N+](=O)[O-])CC1,-11,7,x,3095,x,x,x
CC(N=C1NC(C)(C)Cc2ccccc21)C(=O)O (stereo not given),19,-2,7,4356,16,10,8.2
CCOC(=O)CCCn1ncn2c(cc3occc32)c1=O,-35,-6,3,3730,17,11,0.2
COCCNC(=S)Nc1ccc2nc(N3CCCC3)cc(C)c2c1,-32,6,0,11712,9,18,4.1
CCCCNCc1ccc(OCc2ccc(Cl)nc2)c(OC)c1,-21,5,6,4107,12,-4,3.3
Cc1ccc(S(=O)(=O)N(CC(=O)Nc2cccnc2)c2ccccc2C)cc1,-32,3,-4,3429,-11,6,3.8
CS(=O)(=O)c1ccc(Cl)c(C(=O)NC2CCSc3ccccc32)c1 (stereo not given),-71,2,10,5253,8,5,2.1
